# Bioassay records: PubChem BioAssay, National Center for Advancing Translational Sciences (NCATS)
# VDR inhibitor = Inhibitors of the vitamin D receptor (VDR): qHTS; Potency, µM, for inactives: max response, negative = inhibition, most hits filed as inhibitors; 0.93% of 400,000 active; VDR-SRC2-3 peptide fluorescence polarization, 2 h; Vitamin D3 receptor (Homo sapiens), P11473; AID 504847, 2011; active = well fitted inhibition curve with a large enough effect; inconclusive = small, poorly fitted or top-dose-only effect, or another doubt; inactive = no such curve, though single readings can be large or run the other way; note: series mostly up to about 120 µM
# Target sequence (P11473 whole entry, looked up): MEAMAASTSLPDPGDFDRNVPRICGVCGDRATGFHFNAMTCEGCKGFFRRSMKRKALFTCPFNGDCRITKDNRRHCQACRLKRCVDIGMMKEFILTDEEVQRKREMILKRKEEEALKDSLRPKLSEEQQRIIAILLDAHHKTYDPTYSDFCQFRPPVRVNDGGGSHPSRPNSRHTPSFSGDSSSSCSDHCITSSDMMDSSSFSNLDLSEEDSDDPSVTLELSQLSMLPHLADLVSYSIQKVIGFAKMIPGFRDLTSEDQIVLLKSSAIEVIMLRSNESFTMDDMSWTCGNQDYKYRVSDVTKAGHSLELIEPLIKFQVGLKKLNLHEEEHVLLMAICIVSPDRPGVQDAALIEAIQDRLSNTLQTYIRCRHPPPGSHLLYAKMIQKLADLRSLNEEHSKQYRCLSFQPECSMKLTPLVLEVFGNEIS
#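 Measured by FP: displacement of SRC2-3 coactivator peptide from VDR by library compounds, following a two-hour ambient incubation.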
# Starred values were filed as active, the others as inactive; ? = inconclusive; [ ] = dose if it differs, or a comment. % is set by controls: 0 for no effect and ±100 for the full control effect; potency is the fitted concentration of half-maximal effect. A portion of the library, so the mix of outcomes need not match the whole.
no.	molecule	VDR inhibitor
1	CCC(=O)OCC(=O)C1(OC(=O)CC)C(C)CC2C3CCC4=CC(=O)C=CC4(C)C3(Cl)C(O)CC21C (stereo not given)	0.9%
2	Cc1ccc(CN2CCN(Cc3ccc4cc(F)ccc4n3)CC2CCO)o1 (stereo not given)	-5.9%
3	Cc1cccc(NC(=O)COc2ccc3c(c2)CCC3)n1	-4.2%
4	CCOC(=O)c1cnn(-c2cc(C)cc(C)c2)c1N	-1.9%
5	O=C(c1ccccc1Cl)N1CCc2ccccc2C1	-13.3%
6	COc1ccc(-c2c(C)oc3c(CN4CCCCC4C)c(O)ccc3c2=O)cc1OC (stereo not given)	-9.6%
7	Cc1ccc(NC(=O)Cn2nc(C)c3ccccc3c2=O)cc1F	20.0%
8	CCOC(=O)c1oc2nc(C)c3c(c2c1N)CC(C)(C)OC3	?
9	CCCn1c(N)c(Sc2ccc([N+](=O)[O-])cc2)c(=O)n(CCC)c1=O	6.5%
10	O=C(COC(=O)/C=C/c1ccccc1Cl)NCC1CCCO1 (stereo not given)	-6.5%
11	CC1=C(C(=O)OC2CCCCC2)C(c2ccccc2Br)NC(=O)N1 (stereo not given)	6.1%
12	O=C(NNC(=O)c1sccc1-n1cccc1)Nc1ccc(F)cc1	-13.7%
13	CCc1nnc(NC(=O)CSc2nnc(C)n2-c2ccc(C)cc2)s1	-0.2%
14	COc1ccc(C(=O)c2cc(OC)c(OC)c(OC)c2)cc1OC	-0.8%
15	CCC(CO)Oc1cc(NC(=O)c2cccc(F)c2)c2ncn(C(C)C)c2c1 (stereo not given)	-7.8%
16	CCCn1c(CCC(=O)Nc2cccc(CC)c2)nc2cccnc21	-16.7%
17	CCN1C(=O)[C@@H]2[C@@H](c3ccc(SC4CCCCC4)cc3)N3CCC[C@@]3(C(=O)OC)[C@@H]2C1=O	-4.3%
18	CC(=O)Nc1cccc(C(=O)N/N=C/c2cccnc2)c1	-5.6%
19	CCN1C[C@@H]2[C@@H]3C(=O)N(Cc4ccccc4)C(=O)[C@@H]3[C@](C)(C1=O)N2C(=O)c1ccc(F)cc1	-3.4%
20	COc1ccc(-c2csc(-c3nc(-c4ccc(Br)s4)cs3)n2)cc1F	-1.4%
21	Cc1ccc(OCC(=O)N/N=C/C=C/c2ccco2)cc1C	-24.8%
22	C=CCOc1ccc2c(c1)C(=NO)c1cc(OCC=C)ccc1-2	-20.4%
23	Cc1cccc(NC(=S)NC(NC(=O)OCc2ccccc2)C(Cl)(Cl)Cl)c1 (stereo not given)	5.6%
24	COc1ccc(C2(CNC(=O)Cc3ccc(OC)c(OC)c3)CCCC2)cc1	-9.6%
25	O=C(Nc1ccon1)C12CC3CC(C1)CC(n1cnc([N+](=O)[O-])n1)(C3)C2	2.1%
26	O=C(CN1C(=O)c2ccccc2S1(=O)=O)NCc1ccccc1Cl	-0.8%
27	CCOC(=O)C1C(=O)NC(C)C1c1ccccc1 (stereo not given)	-5.9%
28	COc1ccc(Cl)cc1-c1n[nH]c(=S)n1C1CCCCC1	-5.5%
29	CSc1nc2c(c(-c3ccccc3)c1C#N)CCC2	-4.4%
30	Cc1ccc(NC(=O)CSc2nncc3ccccc23)cc1	-4.3%

# A second format for some results above.
27) CCOC(=O)C1C(=O)NC(C)C1c1ccccc1 (stereo not given)
  VDR inhibitor: -5.9%
28) COc1ccc(Cl)cc1-c1n[nH]c(=S)n1C1CCCCC1
  VDR inhibitor: -5.5%
29) CSc1nc2c(c(-c3ccccc3)c1C#N)CCC2
  VDR inhibitor: -4.4%
30) Cc1ccc(NC(=O)CSc2nncc3ccccc23)cc1
  VDR inhibitor: -4.3%

# Remaining list, next part:
no.	molecule	VDR inhibitor
31	COc1ccccc1N1CCN(CCCCOc2cccc3ccccc23)CC1	-5.4%
32	COc1ccc2c(c1)C(=O)N1[C@H]3c4cc(OC)ccc4OC[C@@H]3[C@H](c3ccccc3)[C@]1(C)C(=O)N2	-13.6%
33	CCOc1ccc(-c2csc(Cn3c(CN4CCN(C)CC4)nc4ccccc4c3=O)n2)cc1	?
34	O=C1C=C(O)c2cccc(O)c2C1=O	-14.4%
35	Cc1ccc(SCC(=O)OCC(=O)NCCc2ccccc2)cc1	-4.1%
36	COc1ccc(OC)c(NC(=O)CSc2nc3nc(C)cc(C)n3n2)c1	-14.1%
37	Cc1ccc(S(=O)(=O)N(C)c2ccc(OC(=O)c3cc(=O)[nH]c4ccccc34)cc2)cc1	-5.7%
38	O=C(NCCCc1ccccc1)C1CCC(CNc2c(N3CCCCC3)c(=O)c2=O)CC1 (stereo not given)	0.0%
39	FC(F)(F)c1cc(-c2cccs2)nc(-n2cc(Cl)cn2)n1	-0.9%
40	Cc1nc2ccc(NC(=S)N3CCC(C)CC3)cc2nc1C	5.6%
41	CCc1ccc(OC)c(S(=O)(=O)NCc2cccs2)c1	-14.5%
42	CN(C)c1nc(-c2cccs2)cc(C(F)(F)F)c1C#N	-16.1%
43	O=C(N/N=C/c1ccc([N+](=O)[O-])o1)c1cc2ccccc2o1	1.4%
44	COCC(=O)N1CCC2(CC1)CN(C(=O)Nc1cccc(C#N)c1)C2	1.0%
45	CCCCCSc1nnc(-c2cc(Br)ccc2N)c(=O)[nH]1	12.9%
46	COC(=O)CN(C(=S)Nc1ccccc1)C1CC(=O)N(c2ccc(OC)cc2)C1=O (stereo not given)	-8.9%
47	Cc1ccc(SCC(=O)c2cc(C)c(O)c(C)c2)cc1	-11.7%
48	CCOc1ccccc1N(CC(=O)N1CCCCCC1)S(=O)(=O)c1ccc(C)cc1	-12.0%
49	COC(=O)c1c(NC(=O)c2ccc(Br)s2)sc2c1CCC2	-5.5%
50	OCC1CCCCN1C(=S)NCc1ccco1 (stereo not given)	-9.9%
51	COc1ccc(C(=O)COC(=O)C(CCSC)NC(=O)COc2ccccc2)cc1 (stereo not given)	-8.6%
52	COc1ccc(C(=O)Oc2ccc[nH]c2=O)cc1	11.5%
53	CC(C)(C)OC(=O)NCCc1nnc(SCc2cccc(Cl)c2)o1	13.6%
54	COCCNC(=O)CN1CCC(NC(=O)c2ccco2)CC1	8.6%
55	CC1CCN(c2oc(-c3ccccc3F)nc2C#N)CC1	-3.8%
56	COc1ccc(C(=O)OCC(=O)c2ccc[nH]2)c(OC)c1	-19.1%
57	O=C(CSc1nc2ccsc2c(=O)n1CC1CCC(C(=O)O)CC1)c1ccc(Cl)cc1 (stereo not given)	-3.6%
58	CCn1c(SCC(=O)Nc2ccccc2F)nnc1-c1ccoc1C	-0.9%
59	C/C(=N\NC(=O)c1nnn(-c2nonc2N)c1CN(C)c1ccccc1)c1cccc(O)c1	6.2%
60	CCOc1ccc(NC(=O)CN(C)C(=O)c2ccccc2SCC(=O)N2CCCC2)cc1OCC	-6.5%
61	O=C(O)c1ccc2c(c1)[C@@H]1C=CC[C@@H]1[C@H](c1ccccn1)N2	?
62	Cc1ccc(C(=O)c2cc3ccccc3o2)cc1[N+](=O)[O-]	10.6%
63	COc1ccccc1CNS(=O)(=O)c1cc(-c2cc(C)no2)ccc1C(C)C	-16.7%
64	O=C(COc1nnc2ccccn12)N1CCN(S(=O)(=O)c2ccccc2)CC1	0.0%
65	Cc1cc2nc(-c3ccncc3)cc(C(F)(F)F)n2n1	-8.9%
66	COCCNC(=O)C(=O)NCC1OCCN1S(=O)(=O)c1ccc(C)cc1 (stereo not given)	-11.7%
67	Cn1c(NC(=O)CC(C)(C)C)cc(=O)n(C)c1=O	-7.6%
68	COc1cccc(-c2nn(-c3ccccc3)cc2CN(C)C(C)c2ccncn2)c1 (stereo not given)	-3.3%
69	OCC[C@@H]1C[C@@H](O)[C@H](O)[C@]2(Cc3ccccc3O2)O1	5.9%
70	Cc1cccc(C(=O)c2c(N)sc3c2CCCC3)c1	-22.0%
71	O=C(NCCCN1CCCC1=O)c1cc(-c2ccc(F)cc2)nc2ccccc12	-10.5%
72	CSc1cnn(Cc2ccccc2)c(=O)c1SCc1ccccc1	?
73	CC1CN(S(=O)(=O)c2ccc(NC(=O)c3cc(-c4ccccc4O)n[nH]3)cc2)CC(C)O1 (stereo not given)	23.7%
74	Clc1ccccc1CNc1ncnc2nc[nH]c12	0.9%
75	CCc1ccc(-n2c(C)cc(/C=N/NC(=O)OC)c2C)cc1	3.2%
76	O=C(CSc1ncnc2sc(-c3ccccc3)cc12)NC1CCS(=O)(=O)C1 (stereo not given)	9.4%
77	CSCCC(NC(=O)c1cccc(C)c1)C(=O)OCN1C(=O)c2ccccc2C1=O (stereo not given)	7.1%
78	COc1cc(NC(=O)c2ccccc2[N+](=O)[O-])ccc1NC(=O)C(C)C	-3.1%
79	COc1cccc(NC(=O)N2CCCC2C(=O)NC(C)C)c1 (stereo not given)	-2.8%
80	O=C1CCN(CCc2ccccc2)CCN1CCO	?
81	CCCC1(CCC)NC(=O)N(CC(=O)Nc2cccc(OC)c2)C1=O	10.4%
82	COc1cc(NC(=O)CN2C(=O)NC(CC(C)C)C2=O)cc(OC)c1OC (stereo not given)	-13.1%
83	Fc1ccc(-c2n[nH]c(=S)c3ccccc23)cc1	-22.2%
84	CCOC(=O)c1cc(NC(=O)c2c(C)noc2C)cc(C(=O)OCC)c1	-3.7%
85	O=C(NCCc1ccc(Cl)cc1)C1CCCN(S(=O)(=O)N2CCCCCC2)C1 (stereo not given)	4.5%
86	CN(C)/C=C(\c1cnc(Cl)s1)S(=O)(=O)c1ccccc1	-2.0%
87	O=C(Cc1ccccc1Cl)N1CCN(c2ccccn2)CC1	2.4%
88	Cc1ccc(C(C(=O)NC2CCCC2)N(Cc2ccc(F)cc2)C(=O)c2csnn2)o1 (stereo not given)	-15.3%
89	COc1ccc(N(Cc2cc3cc(C)ccc3[nH]c2=O)C(C)=O)cc1	-12.1%
90	CCSC1=C(C#N)C(c2ccc(C)s2)CC(=O)N1 (stereo not given)	2.7%

# (cont.)
no.	molecule	VDR inhibitor
91	Cn1cccc1CC(=O)NNC(=S)Nc1ccc(Cl)cc1	-17.6%
92	COc1cccc(-c2noc(-c3ccc4c(c3)OCO4)n2)c1	-9.6%
93	S=C(NCc1ccco1)N1CCN(c2nc(-c3ccc(Cl)cc3)cs2)CC1	3.9%
94	COC(=O)C1=C(C)N(Cc2ccco2)C(=O)C1	-2.7%
95	Cc1noc2ncnc(Sc3ccc(Cl)cc3)c12	-25.2%
96	O=C(CSc1ncccn1)NN=C1CCCCCCC1	-25.8%
97	CCCCCCCn1c(=O)c(C(=O)OC)c(N)c2ccccc21	-0.4%
98	Cc1cccc(NC(=O)C(C)Sc2nc3ccccc3c(=O)n2CCCN2CCOCC2)c1 (stereo not given)	-13.5%
99	O=C(CCN1C(=O)/C(=C/c2ccccc2Cl)SC1=S)NC1C=CS(=O)(=O)C1 (stereo not given)	-7.3%
100	CCOc1ccc(C(=O)CCC(=O)Nc2ccc(C)cn2)cc1	-7.0%
101	Cc1ccc(S(=O)(=O)N2CCOC23CCN(S(=O)(=O)c2c(C)cc(C)cc2C)CC3)cc1	-2.7%
102	CCCCN1C(=O)C(O)=C(C(C)=O)C1c1ccc(OC)cc1OC (stereo not given)	-3.6%
103	O=C(Cn1nnc2ccccc21)N/N=C\C=C\c1ccccc1	4.0%
104	COc1cccc(NC(=O)CN(C)C(=O)CC(NC(=O)c2ccccc2Cl)c2ccccc2)c1 (stereo not given)	8.7%
105	CCOC(=O)c1cnc2c(C)cccc2c1NCc1ccco1	-0.2%
106	COc1cccc(-n2c(SCC(N)=O)nc3ccccc3c2=O)c1	-9.9%
107	O=C(COC(=O)c1ccc(F)c(S(=O)(=O)N2CCOCC2)c1)c1ccc(Cl)cc1	75.3%[activator]
108	CC(CCc1ccccc1)N1CCN(Cc2ccccc2)CC1 (stereo not given)	-16.1%
109	COc1ccccc1N1CCN(C[C@@H](C(=O)NC(C)(C)C)c2ccccc2)CC1	-0.2%
110	CCc1sc(C(=O)NCCc2ccc(S(N)(=O)=O)cc2)cc1Br	?
111	CCCCc1ccc(NC(=O)CSc2nc(=O)[nH]c3c2CCCC3)cc1	1.9%
112	COc1ccc(OC)c(-n2cnc3cc(C(=O)NC4CCCCCC4)ccc32)c1	11.6%
113	CCCCCCCCCCCCCCC(C(=O)O)C(O)(CC(=O)OC)C(=O)O (stereo not given)	22.4µM*
114	S=C(NCC1CCCO1)N1CCN(c2ccc(Cl)c(Cl)c2)CC1 (stereo not given)	-6.9%
115	Cc1ccc(C)c(NC(=O)NC2CCCCCCC2)c1	-8.2%
116	CCOC(=O)N1CCN(C(=S)Nc2cc(S(=O)(=O)N3CCOCC3)ccc2Cl)CC1	100.5%[activator]
117	Cc1ccc(N(C(=O)Cn2nnc3ccccc32)C(C(=O)NCc2ccco2)c2cccnc2)cc1 (stereo not given)	3.2%
118	CCOc1ccc(-c2cc(C(=O)NCCCN3CCOCC3)c3ccccc3n2)cc1	-9.3%
119	Cc1ccc(S(=O)(=O)N(CC(=O)Nc2ccc(F)cc2)C(=O)N2CCN(C)CC2)cc1	-14.1%
120	Cc1cc2ccccc2n2c(SCC(=O)Nc3ccc(S(=O)(=O)N4CCC(C)CC4)cc3)nnc12	-17.0%
121	CCn1cc(Cl)c(C(=O)Nc2c(C)nn(Cc3c(F)c(F)c(F)c(F)c3F)c2C)n1	7.7%
122	Cc1ccc2c(c1)c1c(n2CC(O)Cn2nc(C)c(Br)c2C)C(=O)CCC1 (stereo not given)	11.3%
123	CCC(CC)=NNc1ccc(S(N)(=O)=O)cc1[N+](=O)[O-]	-14.8%
124	Cc1ccc2nc(CN3CCN(C(=O)Nc4cccc(C)c4C)CC3)oc2c1	12.6%
125	CC(C)CC[n+]1ccccc1/C=C/c1ccc(N(C)C)cc1	-15.2%
126	CCOC(=O)/C=C1\SC(C)C(=O)N1CC(=O)N(CCC#N)c1ccccc1 (stereo not given)	-28.2%
127	C[C@H](N)c1nnc(SCC(=O)N(C)C)o1	-16.8%
